Sa growth 42C = inhibitors of Staphylococcus aureus growth at 42 °C; S. aureus RN4220 growth, OD600, 20 h; stronger effect = lower value; relative growth, % (no concentration beside the values); actives 0.53% (n = 170,000); AID 720641;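 active = growth at 42 °C up to 50% and 20 or more points under that at 30 °C, or under 10% at both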;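 note: 300 nL library stock went into each well; scaled to the means of positive and negative controls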
GIV Gai3 FP = inhibitors of GIV GBA-motif binding to rat Galpha-i3. Galpha-i3/FITC-GIV peptide fluorescence polarization, 90 min; stronger effect = lower value; scaled: aluminum fluoride 0%, vehicle 100%. actives 0.42% (n = 210,000). AID 1224905. percent of control (FP), % (test concentration not listed). P08753;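 active = replicate mean at 85% of control or lower, very high polarization wells dropped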;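 note: wells of about 15 µL received 100 nL stock; the first replicate is given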
Target sequence (P08753 whole entry, looked up): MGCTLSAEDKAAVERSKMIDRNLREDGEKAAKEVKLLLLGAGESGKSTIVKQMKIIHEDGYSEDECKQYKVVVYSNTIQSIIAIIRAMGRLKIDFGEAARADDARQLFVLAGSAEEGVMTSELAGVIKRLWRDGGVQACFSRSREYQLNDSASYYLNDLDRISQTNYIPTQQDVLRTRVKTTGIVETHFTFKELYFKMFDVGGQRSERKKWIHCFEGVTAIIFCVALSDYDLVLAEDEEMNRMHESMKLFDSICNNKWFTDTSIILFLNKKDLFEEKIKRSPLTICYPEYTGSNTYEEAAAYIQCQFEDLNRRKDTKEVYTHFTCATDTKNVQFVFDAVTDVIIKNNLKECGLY
HCMV UL50-53 inh = cytomegalovirus nuclear egress complex inhibition | HTRF UL50-UL53 interaction, normalized percent inhibition | inhibition, % (no concentration beside the values) | actives 0.15% (n = 190,000) | AID 1918969;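 active = both replicates at 50% or more, plus weaker picks with an unusually low signal ratio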;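 note: stock transfer was 100 nL into about 20 µL; 0% = negative control wells and 100% = wells with untagged competitor protein; inactives centre near -12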
Sa growth 42C second temp = further read-out of Sa growth 42C, marked with its call; relative growth, %; measured here: growth at 30 °C;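 optical density after 20 h as mean of two plates; 100% = untreated growth and lower means inhibition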
Active calls of the source: *; nt = not tested or not shown; & = joins results of further samples.

SMILES	Sa growth 42C	Sa growth 42C second temp	GIV Gai3 FP	HCMV UL50-53 inh
CC1=C(C(=O)OC2CCCCC2)C(c2coc3ccc(C)cc3c2=O)C2=C(CC(C)(C)CC2=O)N1 (stereo not given)	nt	nt	109	-14
O=C(NC1CCN(C(=O)C2CCCCC2)CC1)c1ccccc1	91	80	103	-24
CCNc1ccc2c(cc1=O)[C@@H](NC)CCc1cc(OC)c(OC)c(OC)c1-2	102	100	111	-74
O=C(NC(=S)Nc1cccc(C(F)(F)F)c1)c1ccccc1	78	43	nt	-1
COc1ccc(OC)c(CCNC(=O)Cn2cccc2C(=O)c2ccccc2)c1	100	84	102&98	-3
O=C(Cn1cnc(S(=O)(=O)N2CCCCC2)c1)N1CCc2ccccc21	101	91	102	-25
CCN=c1sc(C(=O)Nc2ccccc2)c(C)n1CC	95	94	nt	-28
CCN(C(=O)c1ccc(C(=O)N(CC)c2ccccc2)cc1)c1ccccc1	80	86	nt	-16
CCN1C=CC2=C(C#N)C(N)C(C#N)(C#N)C(c3ccccc3C(F)(F)F)C2C1 (stereo not given)	89	83	98	-35
CCCc1cc(=O)[nH]c(SCC(=O)Nc2cc(Cl)cc(Cl)c2)n1	90	73	102	-12
CC(C)(C)NSc1nc2ccccc2s1	82	69	94	0
CC(C)NC(=O)CSc1nc(-c2ccccc2)cn1N	95	98	nt	-8
O=C(Nc1cccc2cccnc12)c1ccc(Br)o1	81	85	101	-42
CCOc1ccc(CCNC(=O)Cn2c(-c3cccs3)cc3cc(F)ccc32)cc1OCC	100	82	106	-10
COc1ccc2[nH]cc(CCNC(=O)c3ccc(Cn4c(=O)c(C)nc5cc(C)c(C)cc54)cc3)c2c1	nt	nt	109	-22
O=C1C(c2cccc(Br)c2)N(CCc2ccccc2)C(=O)CN1C1CCCCC1 (stereo not given)	100	92	101	nt
O=C1NC(Cc2c[nH]c3ccccc23)C(=O)N1c1cccc(Cl)c1 (stereo not given)	nt	nt	102	-16
CCc1ccc(-n2nc(C)c3c(C)cc(OCC(=O)NC(C)c4cc(OC)ccc4OC)nc32)cc1 (stereo not given)	nt	nt	103	-15
Cc1nn(-c2ccccc2)c(Cl)c1C(=O)OCC(=O)N1CCCC1	97	97	nt	-3
CCc1ccc(-c2ccc(=O)[nH]n2)cc1S(=O)(=O)N1CCC(C)CC1	nt	nt	108	-14
CCn1c(C)nc2c(=O)oc3ccccc3c21	107	83	102	nt
Cc1cc(NS(=O)(=O)c2ccccc2)cc(S(=O)(=O)c2ccccc2)c1O	104	80	nt	-12
CC1(C)CC(=O)C(C=NCCN2CCN(CC(=O)Nc3ccccc3)CC2)=C(O)C1	92	94	108	-1
Cc1[nH]c(C(=O)N2CCCC(C(=O)NCCN3CCCCC3C)C2)c(C)c1C(=O)OC(C)C (stereo not given)	nt	nt	130	-4
COc1ccccc1/C=N/n1cnnc1SCC(C)(C)NS(=O)(=O)c1ccc(C)cc1	94	92	nt	-40
N/C(=N\O)c1cccc(CS(=O)(=O)c2ccc(Cl)cc2)c1	107	88	99	-4
O=C(CC1SC(=Nc2ccccc2)N(C2CC2)C1=O)Nc1cccc(Cl)c1 (stereo not given)	127	93	nt	1
O=c1oc2ccccc2cc1-c1nc2ccccc2s1	nt	nt	101	-10
COc1ccc(OC)c(C(C)NC(=O)Cn2c(=O)cc(C)c3c(C)nn(-c4ccc(C)cc4)c32)c1 (stereo not given)	98	86	105	nt
CCn1c(SCC(=O)NC2CCCCC2)nc2ccccc21	111	92	109	4
N#Cc1ccc(NC(=O)C2CCCO2)cc1 (stereo not given)	101	91	104	-12
c1ccc(-c2noc(N3CCCCC3)n2)cc1	nt	nt	109	-12
CC(C)OC(=O)CSc1ncnc2c1cnn2-c1ccccc1	117	104	107	-14
O=C(NCCN1CCN(c2ncnc3sc4c(c23)CCCC4)CC1)c1ccco1	134	82	nt	-9
CC(C)c1ccc2oc(-c3ccc(Cl)c(NC(=O)Cc4ccccc4)c3)nc2c1	97	105	108	-28
CCc1ccc2oc(C(=O)Nc3cccc(Cl)c3C)cc(=O)c2c1	96	93	103	-12
COc1ccc(OC)c(S(=O)(=O)N2CC(C)OC(C)C2)c1 (stereo not given)	103	88	99	nt
CC1(C)CC2CC(C)(CN2C(=O)COC(=O)c2ccc(Cl)c(N)c2)C1 (stereo not given)	104	100	nt	-4
CSc1ncc(C(=O)NCc2cccc(Br)c2)c(-c2ccccc2)n1	85	93	100	nt
CCc1cc2c(cc3c(=O)n(CC(=O)NC(C)C)nc(CC)n32)s1	130	82	101	-35
CC(C)c1ccc(S(=O)(=O)NCCn2c(-c3ccncc3)nc3cccnc32)cc1	nt	nt	108	0
Cc1[nH]c2ccc(C(=O)OCC(=O)N3CCN(c4ccccc4)CC3)cc2c1C	77	94	nt	-26
CS(=O)(=O)N1CCN(Cc2ccccc2)CC1	105	100	99	-8
COc1ccc(N2CCN(C(=O)c3cc(S(=O)(=O)N4CCCCCC4)cn3C)CC2)cc1	119	89	101	nt
N#C/C(=C(/O)CSc1nncn1-c1ccccc1)c1nc2ccccc2[nH]1	88	84	nt	-30

Whole records, looked up by structure:
`CCN=c1sc(C(=O)Nc2ccccc2)c(C)n1CC` across the screens: Sa growth 42C: 95; Sa growth 42C second temp: 94; GIV Gai3 FP: nt; HCMV UL50-53 inh: -28
`Cc1[nH]c2ccc(C(=O)OCC(=O)N3CCN(c4ccccc4)CC3)cc2c1C` across the screens: Sa growth 42C: 77; Sa growth 42C second temp: 94; GIV Gai3 FP: nt; HCMV UL50-53 inh: -26

Later entries
SMILES	Sa growth 42C	Sa growth 42C second temp	GIV Gai3 FP	HCMV UL50-53 inh
COc1ccc(NC(=O)Nc2ccc3c(c2)C(=O)OC3)cc1	117	73	98	nt
Cn1c(=O)c2c(ncn2CC(=O)Nc2cccc(F)c2)n(C)c1=O	nt	nt	100	-9
c1ccc2oc(CSc3ccc4c(c3)OCCO4)nc2c1	106	82	nt	-7
O=C(NCC(O)c1ccccc1)c1ccccc1 (stereo not given)	100	82	102	-19
COc1ccc(NC(=O)C2CC(=O)Nc3nc4ccccc4n32)c(OC)c1 (stereo not given)	nt	nt	98	6
Cn1c(SCCS(=O)(=O)c2ccc(Cl)cc2Cl)nnc1-c1ccco1	95	95	106	-13
Cc1cc(F)ccc1NC(=O)CN1c2ccccc2S(=O)(=O)c2ccccc21	nt	nt	103	-8
Cn1c2ccccc2c2nnc(SCCN3CCCCC3)nc21	84	76	107	-69
COc1cc2c(cc1OC)C(C)N(S(=O)(=O)c1cn(C)cn1)CC2 (stereo not given)	95	82	101	-17
Cc1cc(C(=O)NCC2CCN(C3CCCC3)C2)nc2c1c(C)nn2-c1ccccc1Cl (stereo not given)	90	88	105	nt
CC(C)(C)c1ccc(C(=O)Nc2ccon2)cc1	102	107	106	-4
N#Cc1c(N)n[nH]c1-c1cc2c([nH]1)CCCC2	87	74	104	52
Cc1nc(C)c(NC(=O)OC(C)C)cc1NC(=O)OC(C)C	99	96	nt	-6
CCCCOc1ccc(NC(=O)c2oc3cc(C)c(Cl)cc3c2C)c2cccnc12	nt	nt	101	-21
O=C(O)C1CN=C(c2ccccc2)N1 (stereo not given)	89	96	106	4
Cc1ccc(-c2nnc(CCC(=O)NN)o2)cc1	112	91	nt	-15
Cc1nc2cccnc2n1C1CCN(S(=O)(=O)N(C)C)CC1	90	89	101	nt
C=CCn1c(SCC2=C(C(=O)OCC)C(C)NC(=O)N2)nnc1C1CCCCC1 (stereo not given)	101	90	nt	-10
COc1nc(N(c2ccccc2)c2ccccc2)nc(-n2ccnc2)n1	114	81	104	0
S=c1nc[nH]c2c1oc1ccccc12	105	65	105	-8
CCc1nn2c(=O)cc(COC(=O)c3ccccc3NC(=O)COc3ccc(F)cc3)nc2s1	105	89	98	nt
N#Cc1ccc(C=Nc2cccc3c(N=Cc4ccc(C#N)cc4)cccc23)cc1	79	84	nt	-14
COc1cccc([C@@H]2Nc3ccc(C(=O)O)cc3[C@@H]3C=CC[C@@H]32)c1OC	93	85	103	nt
COc1ccc(S(=O)(=O)N(C(=O)c2ccccc2C)c2ccc3oc(=O)sc3c2)cc1	nt	nt	98	-15
O=C(C1CCN(c2ncnc3c2nc2n3CCCCC2)CC1)N1CCN(c2cccc(Cl)c2)CC1	92	57	107	nt
CC(C(=O)N1c2ccccc2Sc2ccccc21)N1C(=O)c2ccccc2C1=O (stereo not given)	108	93	100	0
CC1=C(C)C(=O)C(CCCCC#CCCCC#CCO)=C(C)C1=O	99	88	105&105	-33&5&-41
CCN(C(=O)CSc1nc2sc3c(c2c(=O)n1C)CCCC3)C1CCS(=O)(=O)C1 (stereo not given)	82	84	nt	-2
O=C(COc1ccccc1Cl)OCc1cc(=O)n2nc(C3CCCCC3)sc2n1	105	87	105	nt
Clc1ccc(-c2nc3ccccn3c2Nc2ccc3c(c2)OCCO3)s1	98	92	97	24

Only HCMV UL50-53 inh, for two of the compounds above:
Structure	HCMV UL50-53 inh
CC(C(=O)N1c2ccccc2Sc2ccccc21)N1C(=O)c2ccccc2C1=O (stereo not given)	0
CC1=C(C)C(=O)C(CCCCC#CCCCC#CCO)=C(C)C1=O	-33&5&-41

The results go on.
SMILES	Sa growth 42C	Sa growth 42C second temp	GIV Gai3 FP	HCMV UL50-53 inh
CC(CNC(=O)CCS(=O)(=O)c1ccc2c(c1)CC(C)N2C(=O)C1CC1)c1ccccc1 (stereo not given)	nt	nt	104	-9
O=C(COc1ccc(-c2nc(-c3ccccc3)no2)cc1)NCC1CCCO1 (stereo not given)	nt	nt	105	-32
O=P(c1ccc2c(c1)OCCO2)(N1CCOCC1)N1CCOCC1	93	91	nt	-27
Cc1ccc(-c2cn3cccc(C)c3n2)cc1	114	75	nt	-22
Cc1cc(C)n(CCC(=O)NC2CCCCCC2)n1	94	77	96	-24
Cc1ccccc1NC(=O)c1cc(C)n(Cc2cccs2)c1C	106	93	105	-28
CCC(=O)N1CCc2cc(S(=O)(=O)NCCC(=O)Nc3cccc(SC)c3)ccc21	112	87	109	-12
CCOc1ccccc1CNC(=O)CN1C(=O)C2CCCCN2c2ccc(C(=O)N(C)C)cc21 (stereo not given)	118	100	112	nt
Cn1c(-n2cccc2)c(-c2c(-c3ccc(F)cc3)[nH]c3c2c(=O)[nH]c(=O)n3C)c(=O)[nH]c1=O	95	89	104&97	-17&9
COC(=O)c1ccc(OCC(O)Cn2cnc3cc(C)c(C)cc32)cc1 (stereo not given)	99	84	102	nt
COc1cccc(C(=O)N2CCCCC2C)c1 (stereo not given)	95	87	nt	-16
C/C(N)=C(/C#N)C(=O)CSc1nnc2sc3ccccc3n12	110	91	nt	4
CC1CCc2c(sc(N)c2C(=O)Nc2ccc(Cl)cc2)C1 (stereo not given)	106	70	nt	-16
CCCN(CCC)CCCNC(=O)Cn1cnc2onc(-c3ccc(F)cc3)c2c1=O	105	87	101	nt
CCCCn1c(=O)n(-c2ccc(Br)cc2F)c(=O)c2c3c(sc21)CN(C(C)=O)CC3	83	69	106	-9
Cc1ccccc1NC(=O)c1c(C)oc2ccc(O)c(CN3CCCC(C)C3)c12 (stereo not given)	97	88	108	5
CCOC(=O)c1ccccc1NC(=O)Cn1nnc2sc3c(c2c1=O)CCC(C(C)(C)C)C3 (stereo not given)	nt	nt	102	-2
CCCn1c(=O)c2sccc2n2c(CCCC(=O)N3CCN(c4cccc(Cl)c4)CC3)nnc12	117	87	109	nt
FC(F)(F)c1ccc(-c2n[nH]c(=S)o2)nc1	83	78	102	-31
Cc1oc(-c2ccccc2F)nc1CS(=O)(=O)CC(=O)NC1CCCC(C)C1C (stereo not given)	92	96	107	2
CCC(C(=O)Nc1cccc(OC)c1)n1nc(-c2ccc(C)cc2)ccc1=O (stereo not given)	nt	nt	100	-6
Cc1sc2nc(CC(=O)N3CCCC3)[nH]c(=O)c2c1C	105	89	nt	5
CCCN1CN=C(Nc2nc(-c3ccccc3)c3cc(Cl)ccc3n2)NC1	96	87	102	-32
CC(N)(Cc1ccc(O)c(O)c1)C(=O)O (stereo not given)	nt	nt	103	-48&61
CCOc1ccccc1CNC(=O)CN1C(=O)c2cccnc2Oc2ccc(C)cc21	130	97	109	nt
COc1ccc2oc(-c3ccc(C)c(NC(=O)COc4cc(C)cc(C)c4)c3)nc2c1	119	84	108	-44
CCc1ccnc(NC(=O)CCCC(=O)O)c1	101	84	100	-14
Cn1c(-c2ccccc2)c(C(=O)COC(=O)c2ccc(S(=O)(=O)NCc3ccco3)cc2)c2ccccc21	78	93	nt	-2
CCOC(=O)c1c(NC(=O)c2ccc(Cl)cc2)sc(C(=O)Nc2cc(C(F)(F)F)ccc2Cl)c1C	nt	nt	100	3
Cc1noc(C(=O)N2C(C)CCCC2C)c1Cl (stereo not given)	93	87	98&98	2&-20

Seven entries picked at random from the list so far:
SMILES	Sa growth 42C	Sa growth 42C second temp	GIV Gai3 FP	HCMV UL50-53 inh
CCCn1c(=O)c2sccc2n2c(CCCC(=O)N3CCN(c4cccc(Cl)c4)CC3)nnc12	117	87	109	nt
CC(N)(Cc1ccc(O)c(O)c1)C(=O)O (stereo not given)	nt	nt	103	-48&61
CCOc1ccccc1CNC(=O)CN1C(=O)c2cccnc2Oc2ccc(C)cc21	130	97	109	nt
FC(F)(F)c1ccc(-c2n[nH]c(=S)o2)nc1	83	78	102	-31
CCC(C(=O)Nc1cccc(OC)c1)n1nc(-c2ccc(C)cc2)ccc1=O (stereo not given)	nt	nt	100	-6
Cc1ccccc1NC(=O)c1c(C)oc2ccc(O)c(CN3CCCC(C)C3)c12 (stereo not given)	97	88	108	5
CCCN1CN=C(Nc2nc(-c3ccccc3)c3cc(Cl)ccc3n2)NC1	96	87	102	-32

Compounds as they come; any-hit rate near 0.85%.
